ALR H2O2 inh – blocks human ALR sulfhydryl oxidase activity; inhibition, % (test concentration not listed); AID 485317; 290,000 compounds, 3.8% hits; purified ALR, DTT oxidation, H2O2 HRP-luminol luminescence; P55789;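 active means mean and each replicate at 75% or more; inconclusive means only one of the two met; inactive means neither met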;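 further: stock transfer was 7.5 nL into about 7.5 µL; 0% = neutral wells and 100% = wells with inactivated enzyme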
Target sequence (P55789 whole entry, looked up): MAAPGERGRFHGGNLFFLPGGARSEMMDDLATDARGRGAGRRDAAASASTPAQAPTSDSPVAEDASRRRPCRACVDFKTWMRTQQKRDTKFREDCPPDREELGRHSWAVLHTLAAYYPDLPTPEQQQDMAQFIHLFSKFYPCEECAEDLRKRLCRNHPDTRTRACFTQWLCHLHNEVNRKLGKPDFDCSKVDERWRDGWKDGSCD
Ecoli growth – blocks Escherichia coli growth; OD600, 23 h; hits give low values; OD600 absorbance (test concentration not listed); 330,000 compounds, 0.21% hits; AID 1053175;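 active means OD600 absorbance below the run mean of sample wells minus 3.6 SD, in any replicate, cut at about 0.56 in these data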;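 further: stock transfer was 300 nL into about 60 µL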
Vif TR-FRET – HIV-1 Vif–A3G interaction blockers – biochemical, TR-FRET, GST-Vif 1-94, biotin-A3G peptide, dose response retest, primary screen (AID 1117319). 260,000 compounds, 0.57% hits. inhibition, %; hits with a dose series show IC50 in µM. TR-FRET GST-Vif / biotin-A3G peptide binding; higher % means a stronger effect; test concentration not given here; strong numbers were not always called active;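 active means above the screen mean plus three standard deviations and confirmed in dose response; inconclusive means results disagree or hit not tested in dose response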;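 further: Vif residues 1-94 fused to GST binding biotinylated APOBEC3G peptide 110-148; 0% = full assay without inhibitor and 100% = GST in place of GST-Vif; retest series ran down from 100 µM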
Ecoli rRNA inh – inhibitors of bacterial rRNA selective over humanized ribosomes | E. coli WT GFP vs humanized-ribosome RFP mutants, fluorescence, 24 h; hits give low values; DMSO median 0, no signal -100 | GFP signal change (wild-type ribosome), % (test concentration not listed) | 350,000 compounds, 1.6% hits | AID 720706;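 active means significant combined selectivity score with lowered wild-type GFP, culture density cut under 30%, mutant RFP and density less affected; inactive means any of these conditions unmet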; further: one replicate is shown; some compounds called inactive have numbers as strong as hits
MLL AF4-AF9 inh – blocks AF4 peptide binding to human AF9; P42568; AlphaScreen, biotin-AF4 peptide binding to FLAG-AF9; inhibition, % at 10 µM; 350,000 compounds, 0.47% hits; AID 651704;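 active means every replicate reaching a set inhibition limit, whatever the replicate mean, cut at about 25% in these data; inconclusive means mean inhibition reaches that limit but some replicates miss it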;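 further: 0% = plate neutral control median and 100% = total signal loss; the record names both 10 and 1 µM as test concentration; the first replicate is given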
HNF4A DNA FP – change in binding of human HNF4 alpha to DNA | AID 1224865 | 360,000 compounds, 0.3% hits | HNF4a-FITC DNA binding, fluorescence polarization, 1 h | activity change, % at 10 µM | P41235; in the data active means activity change above about 30%, passing the limit was not always enough;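 further: controls were the assay level and a saturating level of protein; the project sought stronger binding though the title names inhibitors; some compounds called inactive have numbers as strong as hits; positive values seem to mean higher polarization but the record does not say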
Target sequence (P41235 whole entry, looked up): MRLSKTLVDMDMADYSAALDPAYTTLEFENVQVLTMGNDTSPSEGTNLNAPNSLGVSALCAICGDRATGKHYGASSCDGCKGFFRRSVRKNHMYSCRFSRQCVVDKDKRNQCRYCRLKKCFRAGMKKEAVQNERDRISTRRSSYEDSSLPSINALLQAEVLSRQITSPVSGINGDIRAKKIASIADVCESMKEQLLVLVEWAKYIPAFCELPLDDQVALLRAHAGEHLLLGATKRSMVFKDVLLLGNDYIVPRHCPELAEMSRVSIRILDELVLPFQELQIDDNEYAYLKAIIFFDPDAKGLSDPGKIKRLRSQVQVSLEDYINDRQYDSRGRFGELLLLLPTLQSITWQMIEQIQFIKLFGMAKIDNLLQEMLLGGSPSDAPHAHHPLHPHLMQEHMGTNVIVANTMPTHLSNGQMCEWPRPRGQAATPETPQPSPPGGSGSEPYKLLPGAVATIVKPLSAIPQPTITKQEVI
FGF22 binding – FGF22 (human) thermal shift binding. Q9HCT0. recombinant FGF22 thermal shift, SYPRO orange fluorescence; percent of sucrose octasulfate shift, DMSO zero. calls only at 9.99 µM. 340,000 compounds, 1.5% hits. AID 651658;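 active means melting point raised past a set limit in the mean and every replicate; inconclusive means no clear call; three in four hits are not shown here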
Target sequence (Q9HCT0 whole entry, looked up): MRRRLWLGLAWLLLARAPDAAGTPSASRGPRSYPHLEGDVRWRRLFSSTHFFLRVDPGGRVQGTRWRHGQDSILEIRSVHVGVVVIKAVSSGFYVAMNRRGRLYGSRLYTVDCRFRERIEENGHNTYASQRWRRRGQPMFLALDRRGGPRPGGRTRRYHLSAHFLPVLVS
Ecoli rRNA inh OD600 – further read-out of Ecoli rRNA inh, marked with its call; OD600 change, %; measured here: OD600 growth;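 optical density of the mix in the first replicate; 0 = DMSO median and -100 = no signal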
Ecoli rRNA inh RFP – recorded beside Ecoli rRNA inh, whose call it bears; RFP signal change, %; measured here: RFP humanized mutant strains;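 first replicate; 0 = DMSO median and -100 = no signal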
Starred values were filed as active, the others as inactive; i = inactive; ? = inconclusive; . = no result given; & = joins results of further samples.

SMILES	ALR H2O2 inh	Ecoli growth	Vif TR-FRET	Ecoli rRNA inh	Ecoli rRNA inh OD600	Ecoli rRNA inh RFP	MLL AF4-AF9 inh	HNF4A DNA FP	FGF22 binding
COc1cc2oc(=O)cc(CN3CCN(c4ccc(Cl)c(Cl)c4)CC3)c2cc1Cl	.	.	.	24	15	-2.2	-3.6	6.2	i
CC(=O)Nn1cc2c(=O)n(C)c(=O)n(C)c2c1	-9	0.68	69%	15	5	4.3	-1.1	-0.5	i
Cc1ccc(S(=O)(=O)N2CCOCC2)cc1C(=O)NC1=NCCS1	-1	0.68	.	1	4	-2.5	0.5	-0.8	i
CCN(CC)C(=O)c1cn(CCC#N)nc1-c1ccc(F)cc1	-4	0.69	-1%	17	6	0.9	-2.0	0.3	i
Cc1cccc(NC(=O)CCN2CCN(C/C=C/c3ccccc3)CC2)c1	8	0.64	1%	.	.	.	.	1.2	.
c1ccc(COc2ncnc3c2ncn3CCCNCC(c2ccccc2)c2ccccc2)cc1	.	.	-2%	-48	-84	-14	5.1	1.1	i
COc1ccc(S(=O)(=O)N2CCOC2CNC(=O)C(=O)NCCN2CCOCC2)cc1C (stereo not drawn)	1	0.71	.	6	3	-1.7	-0.9	1.6	i
C[C@H]1CCCCO[C@@H](CN(C)C)[C@@H](C)CN([C@@H](C)CO)C(=O)c2cc(NC(=O)Nc3ccc(C(F)(F)F)cc3)ccc2O1	.	.	.	1	3	2.1	-0.7	.	i
COc1ccc(-c2ccoc2)cc1[C@H]1[C@H]2C=CC[C@@H](C)[C@@H]2C(=O)N1Cc1ccccc1	-1	.	.	-3	-6	-5.9	1.4	6.3	i
CC(C(=O)NCCCn1ccnc1)(c1ccccc1)c1ccccc1	-8	0.64	10%	-3	-1	-2.5	0.6	0.1	i
Cc1sc2nc(CN3CCCCC3)nc(Nc3ccc4c(c3)OCCO4)c2c1C	.	0.72	6%	-4	6	-3.4	7.0	-1.2	i
Cc1cc(Nc2ccccc2)nn1C(=O)c1ccc(Cl)cc1	43	0.65	-4%	.	.	.	.	1.3	.
O=C(Nc1ccccc1)c1sccc1Oc1ccc([N+](=O)[O-])cc1F	11	0.66	-1%	-15	-5	-4.8	?	0.9	i
Cc1ccc2[nH]c(C)c(CCN(Cc3cccnc3)C(=S)NC(C)(C)C)c2c1	3	0.66	6%	1	7	-0.4	7.4	2.1	i
Cn1c2nc3ccccc3c-2nc2ccccc21	.	.	-3%	1	16	-3.9	2.9	2.9	i
Cc1ccc(S(=O)(=O)N[C@H]2CC[C@H](CCNC(=O)C3CCCC3)O[C@H]2CO)cc1	.	.	.	1	0	-2.2	0.3	.	i
Cc1ccc(S(=O)(=O)N[C@@H]2C=C[C@H](CC(=O)NCCN3CCCCC3)O[C@H]2CO)cc1	.	.	.	2	4	-1.8	-0.5	.	i
CC(C)Oc1ccc(S(=O)(=O)N2CCOCC2)cc1NC(=O)Cc1cccs1	.	0.65	-1%	-9	-13	1.2	-0.4	-2.9	i
O=C(NCc1cccc(F)c1)c1cccc2c1C(=O)c1ccc(N3CCOCC3)cc1S2(=O)=O	-8	0.72	.	4	10	31	0.3	13	i
COc1ccccc1OCCCCN1CCC(C)CC1	-3	0.67	-7%	12	12	4.9	1.2	2.5	i
CN(C)c1ccc(CNn2cnnc2SCc2ccccc2F)cc1	?	0.74	21%	-17	-19	26	8.1	-2.7	i
CCc1ccc(-c2cc(C)no2)cc1S(=O)(=O)N1CCN(c2ccccc2)CC1	-20	0.73	.	8	3	5.0	-2.0	-0.2	i
COCC(=O)NC[C@H]1[C@H](c2ccc(-c3ccccc3)cc2)[C@H](CO)N1C(C)=O	.	.	.	-1	6	-1.6	1.2	.	i
COc1ccc(S(=O)(=O)N(C)C[C@@H]2Oc3ccc(NS(=O)(=O)c4cn(C)cn4)cc3CC(=O)N([C@H](C)CO)C[C@@H]2C)cc1	.	.	.	4	2	0.0	-1.5	.	i
CCOC(=O)C1CCCN(C(=O)c2ccc(Cl)c(S(=O)(=O)N3CCCCC3)c2)C1 (stereo not drawn)	-2	.	5%	-9	-7	1.2	-1.5	4.0	i

The results go on:
SMILES	ALR H2O2 inh	Ecoli growth	Vif TR-FRET	Ecoli rRNA inh	Ecoli rRNA inh OD600	Ecoli rRNA inh RFP	MLL AF4-AF9 inh	HNF4A DNA FP	FGF22 binding
CCC(=O)N(c1nnc(SCC(=O)Nc2ccc(N3CCOCC3)cc2)s1)C1CC1	.	0.67	0%	6	1	2.5	0.6	7.4	i
O=c1cc(O)c2sc3nc4c(c(C(F)(F)F)c3c2[nH]1)CCCCC4	.	0.68	.	-9	-12	2.1	-1.5	-1.4	i
CC(=O)Nc1ccc(Nc2nc(C)c([N+](=O)[O-])c(Nc3ccccc3)n2)cc1	39	0.69	12%	.	.	.	.	-4.4	.
O=C1CCC(C(=O)N2CCCC(N3CCN(c4cccc(C(F)(F)F)c4)CC3)C2)=NN1 (stereo not drawn)	-2	0.66	.	3	10	-1.3	-1.1	-1.9	i
O=C(C[C@H]1CC[C@H]2[C@@H](COC[C@H](O)CN2S(=O)(=O)c2cccc(F)c2)O1)NCCCN1CCOCC1	.	.	.	0	-4	1.2	-0.8	.	i
CCn1c(CCC(=O)O)nc2cc(S(=O)(=O)N(C)C)ccc21	-6	0.72	6%	12	9	1.8	0.1	-2.0	i
COc1ccc(OC)c(C2=NS(=O)(=O)N(C)C(C(=O)NCc3ccco3)=C2)c1	3	0.67	.	-6	-10	-2.3	6.9	-0.3	i
COc1ccccc1/C=C/C(=O)Nc1ccc2c(c1)CCC2	11	0.71	.	.	.	.	.	3.8	.
c1ccc2c(c1)CNc1ccccc1C2	-12	0.61	3%	.	.	.	.	0.4	.
Cc1noc(C)c1S(=O)(=O)Nc1ccc2c(c1)C(=O)N([C@@H](C)CO)C[C@H](C)[C@@H](CN(C)S(C)(=O)=O)O2	.	.	.	0	10	-1.5	-3.5	.	i
CNC(=O)N(O)C1N(/N=C/c2c(F)cccc2Cl)C(=S)SC1(C)C (stereo not drawn)	.	.	8%	4	11	2.6	1.0	-2.7	i
Cc1ccc(NC(=O)N2CCC(c3nc4c(nnn4Cc4cccc(Cl)c4)c(=O)[nH]3)CC2)cc1	0	0.7	2%&-7%	.	.	.	.	4.0	.
Cc1c(C#N)c(O)n(CCO)c(=O)c1N=Nc1ccccc1	.	0.71	-9%	24	3	20	.	11	i
COC(=O)c1ccc(NCc2cc(O)ccc2O)cc1	.	.	.	-11	4	8.6	4.9	-3.2	i
Cc1ccc(NC(=O)NC2CCCCCCC2)c(C)c1	-8	0.72	.	13	7	1.5	-1.3	1.9	i
CN1C(=O)c2cc(NC(=O)Nc3ccccc3F)ccc2OC[C@H]2O[C@H](CC(=O)NCCc3ccncc3)CC[C@H]21	.	.	.	4	7	-3.5	-2.4	.	i
CCN(Cc1ccccc1)S(=O)(=O)c1ccc(OC)cc1	-11	0.65	.	-28	-27	-3.2	0.1	-0.3	i
O=C1N[C@H](c2ccccc2)COCc2cn(nn2)CC[C@@H]1Cc1ccccc1	.	.	.	-16	-14	0.6	-1.5	.	i
CC(CCc1ccccc1)NC(=O)CNc1cccc([N+](=O)[O-])c1 (stereo not drawn)	.	0.63	.	14	-9	3.1	4.6	-4.0	i
CC(C)C(=O)Nc1ccc(NC(=O)c2cccc3c(Br)cccc23)cc1	-3	0.71	-3%	0	4	2.1	1.6	0.0	i
C[C@H](CO)N1C[C@H](C)[C@@H](CN(C)C(=O)Cc2ccncc2)Oc2cc(C#CC3CC3)ccc2S1(=O)=O	.	.	.	-1	2	-1.8	5.7	.	i
C[C@H](CO)N1C[C@H](C)[C@H](CN(C)S(=O)(=O)c2cn(C)cn2)OCCCC[C@H](C)Oc2ccc(NC(=O)NC3CCCCC3)cc2C1=O	.	.	.	0	-2	-0.8	-5.7	.	i
CC(=O)N1N=C(c2ccccc2)OC12CCCC2	-2	0.68	-9%	6	13	-0.1	-1.7	-0.4	i
O=C(c1ccc(N2C(=O)CCC2=O)cc1)N1CCN(c2ccccc2)CC1	23	0.78	28%	.	.	.	.	3.1	.
CCCNC(=O)C[C@@H]1CC[C@@H]2[C@H](COc3ccc(NC(=O)c4cccc(OC)c4)cc3C(=O)N2C)O1	.	.	.	-3	0	-0.8	-0.1	.	i

Additional entries follow.
SMILES	ALR H2O2 inh	Ecoli growth	Vif TR-FRET	Ecoli rRNA inh	Ecoli rRNA inh OD600	Ecoli rRNA inh RFP	MLL AF4-AF9 inh	HNF4A DNA FP	FGF22 binding
Cc1ccccc1NC(=O)CC1SCCNC1=O (stereo not drawn)	2	0.7	13%	.	.	.	.	0.3	.
CCCCCC1C(=O)CCC1CC(=O)OC (stereo not drawn)	.	.	.	.	.	.	0.0	1.1	i
Cc1ccc(NC(=O)CC2C(=O)N(Cc3ccccc3)C(=S)N2NC(=O)c2ccccc2)c(C)c1 (stereo not drawn)	-2	0.68	.	-11	-27	-8.3	-4.4	-0.4	i
CN(Cc1ccccc1)S(=O)(=O)c1ccc(OCC(=O)N2CCC(C(N)=O)CC2)cc1	-10	0.68	27%	4	5	-2.3	.	0.7	i
CC(C)NS(=O)(=O)c1ccc(NC(=S)NC(=O)c2cccc([N+](=O)[O-])c2)cc1	.	0.67	?	-13	-2	0.5	-1.4	-2.1	i
CN(C(=O)CSc1nnc(-c2n[nH]c3ccccc23)o1)c1ccccc1	-17	0.67	13%	-17	-23	-2.8	-1.2	0.1	i
N#CC1=C(SCC(=O)NC2CCCCC2)NC(=O)CC1c1ccco1 (stereo not drawn)	3	0.7	17%	.	.	.	.	-1.4	.
CCN(CC)S(=O)(=O)c1ccc(Nc2nc3ccccc3n3nnnc23)cc1	-5	0.77	-2%	.	.	.	.	20	.
CN1CCN(C(=O)C[C@@H]2C=C[C@H](NS(=O)(=O)c3cccc(F)c3)[C@H](CO)O2)CC1	.	.	.	1	8	-4.4	-3.1	.	i
CCOC(=O)Nc1ccc2c(COC(=O)CNS(=O)(=O)c3cccc(Br)c3)cc(=O)oc2c1	-1	0.72	1%	.	.	.	.	3.9	.
COC(=O)C1=CN(C)C=C(C(=O)OC)C1c1ccccc1Cl	-10	0.75	24%	.	.	.	.	-2.0	.
CCCC1(CCC)NC(=O)N(CC(=O)Nc2ccc3c(c2)OCCO3)C1=O	2	0.69	-7%	-2	-4	-3.0	0.2	3.6	i
CN(C)c1ccc(C2NCC(CCl)O2)cc1 (stereo not drawn)	-7	0.74	9%	.	.	.	.	2.9	.
CCOc1ccc2oc(C(=O)N(C)CCc3ccc(OC)c(OC)c3)c(C)c2c1	0	0.7	1%	-14	-8	4.0	-3.7	5.9	i

Single records (already shown):
Listed for CN1CCN(C(=O)C[C@@H]2C=C[C@H](NS(=O)(=O)c3cccc(F)c3)[C@H](CO)O2)CC1 → ALR H2O2 inh: .; Ecoli growth: .; Vif TR-FRET: .; Ecoli rRNA inh: 1; Ecoli rRNA inh OD600: 8; Ecoli rRNA inh RFP: -4.4; MLL AF4-AF9 inh: -3.1; HNF4A DNA FP: .; FGF22 binding: i
Listed for CCN(CC)S(=O)(=O)c1ccc(Nc2nc3ccccc3n3nnnc23)cc1 → ALR H2O2 inh: -5; Ecoli growth: 0.77; Vif TR-FRET: -2%; Ecoli rRNA inh: .; Ecoli rRNA inh OD600: .; Ecoli rRNA inh RFP: .; MLL AF4-AF9 inh: .; HNF4A DNA FP: 20; FGF22 binding: .
Listed for Cc1ccccc1NC(=O)CC1SCCNC1=O (stereo not drawn) → ALR H2O2 inh: 2; Ecoli growth: 0.7; Vif TR-FRET: 13%; Ecoli rRNA inh: .; Ecoli rRNA inh OD600: .; Ecoli rRNA inh RFP: .; MLL AF4-AF9 inh: .; HNF4A DNA FP: 0.3; FGF22 binding: .

From PubChem BioAssay

This is a subset (hit frequency here may not be typical).
